# Assay outcomes: PubChem BioAssay, National Center for Advancing Translational Sciences (NCATS)
# TRPV1 PAM: potentiators of human vanilloid receptor 1 (TRPV1) | Q8NER1 | TRPV1-expressing cells, Fluo-8 calcium influx, capsaicin EC20 potentiation; host cell line not named in the record; control for the full effect not named in the record | potentiation, % at 8.33 µM | actives 0.02% (n = 320,000); active means potentiation above 80%; inconclusive means 30% to 80%; inactive means below 30%; note: 0% is about no effect
#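 Fluo-8 calcium influx in TRPV1-expressing cells, kinetic read (ex 480/em 520 nm). Compound added and read 3 min for agonist activity, followed by capsaicin at EC20 final and 2 min further read for enhancement.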
# Six1-Eya2 blk: inhibitors of human Six1/Eya2 interaction; actives 0.56% (n = 360,000); AlphaScreen GST-Six1/His-Eya2 binding, biochemical; hits give low values; control for the full effect not named in the record; AID 651725; activity change, % (concentration not given with the values); Q15475+O00167; in the data active = activity change below about -65%; inconclusive = about -30% to -65%; inactive = above about -30%; note: % is set by controls: 0 for no effect and ±100 for the full control effect
# Target sequence (O00167 whole entry, looked up): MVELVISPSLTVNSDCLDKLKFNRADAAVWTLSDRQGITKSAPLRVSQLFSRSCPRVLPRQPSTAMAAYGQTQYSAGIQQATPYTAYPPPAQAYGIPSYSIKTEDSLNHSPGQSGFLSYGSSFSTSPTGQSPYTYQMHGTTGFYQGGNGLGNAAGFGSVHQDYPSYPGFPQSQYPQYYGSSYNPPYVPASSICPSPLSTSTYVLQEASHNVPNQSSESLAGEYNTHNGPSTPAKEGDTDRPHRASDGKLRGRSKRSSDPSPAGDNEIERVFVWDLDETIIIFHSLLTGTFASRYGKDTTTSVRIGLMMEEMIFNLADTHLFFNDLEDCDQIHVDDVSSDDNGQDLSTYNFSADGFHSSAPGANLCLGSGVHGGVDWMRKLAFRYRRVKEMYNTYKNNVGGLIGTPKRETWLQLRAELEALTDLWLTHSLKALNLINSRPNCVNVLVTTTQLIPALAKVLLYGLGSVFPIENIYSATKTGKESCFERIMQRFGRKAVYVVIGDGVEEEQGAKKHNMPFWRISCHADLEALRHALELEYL
# Target sequence (Q15475 whole entry, looked up): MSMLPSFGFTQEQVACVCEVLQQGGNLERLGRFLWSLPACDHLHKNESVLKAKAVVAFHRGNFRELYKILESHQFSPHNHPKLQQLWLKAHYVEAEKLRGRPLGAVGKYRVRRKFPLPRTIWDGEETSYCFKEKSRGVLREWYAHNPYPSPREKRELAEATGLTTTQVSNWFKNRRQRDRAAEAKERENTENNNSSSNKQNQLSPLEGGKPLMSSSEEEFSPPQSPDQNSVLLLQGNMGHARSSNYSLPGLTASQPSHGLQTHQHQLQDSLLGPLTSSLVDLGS
#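 Six1/Eya2 binding was read as AlphaScreen signal after compounds were pinned into GST-Six1 plus His-tagged Eya2 (5X stock 250/500 nM) in pH 8.0 Tris/NaCl/TCEP buffer, beads added, then incubated 1 h, 37 C, dark.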
# Sfp inh: Sfp phosphopantetheinyl transferase inhibition; Potency, µM, inactives show max response, negative = inhibition, most hits filed as inhibitors; actives 3.5% (n = 310,000); Q9F4F7; Biochemical Sfp PPTase activity, qHTS; active = well fitted inhibition curve with a large enough effect; inconclusive = small, poorly fitted or top-dose-only effect, or another doubt; inactive = no such curve, though single readings can be large or run the other way;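 note: the enzyme is Sfp with the accession as filed and its product quenches rhodamine fluorescence; potency is the fitted concentration of half-maximal effect; 0% = enzyme reaction without inhibitor and -100% = no enzyme wells; top concentration of the series not given in the record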
#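 With Hepes-Na pH 7.6 buffer containing 10 mM MgCl2, Sfp (15 nM) modified BHQ-2-YbbR (12.5 uM) using rhodamine-CoA (5 uM). Two reads 30 minutes apart at 525/598 nm yielded each well's rate.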
# D2 PAM: positive allosteric modulators of human D2 dopamine receptor | DiscoveRx D2 beta-arrestin cells, luminescence, 90 min; 100% = 57 uM dopamine signal | potentiation, % (no concentration beside the values) | P14416 | AID 624464 | actives 0.23% (n = 360,000); active = potentiation of 50% or more; inconclusive = 30% to 50%; inactive = 30% or less;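 note: compound concentration not given in the record; tested on top of an EC20 dose of dopamine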
#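 PathHunter D2 cells, attached overnight at 37 deg C, received compound in DMSO plus dopamine at EC20 (50 nM final) for 90 min at 37 deg C. Beta-arrestin recruitment was read as luminescence after 1 h with detection reagent at ambient temperature.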
# CtBP-E1A blk: blocks the CtBP interaction with E1A | AlphaScreen GST-E1A/His-CtBP binding, 1536-well; hits give low values; control for the full effect not named in the record | activity change, % (test concentration not listed) | actives 0.49% (n = 340,000) | AID 651724; in the data active means activity change below about -65%; inconclusive means about -30% to -65%; inactive means above about -30%; note: % is set by controls: 0 for no effect and ±100 for the full control effect; compound concentration not given in the record
#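 Homogeneous bead-based format: GST-tagged E1A captured on glutathione donor beads, His-tagged CtBP on nickel acceptor beads; compounds precede bead addition by 2 h at 37 °C.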
# D2 agonist: human D2 receptor agonism in beta-arrestin assay; activation, % (test concentration not listed); actives 0.084% (n = 360,000); P14416; AID 624465; DiscoveRx PathHunter D2 beta-arrestin, luminescence, 90 min; 100% = 57 uM dopamine signal; in the data active = activation above about 40%; inconclusive = about 15% to 40%; inactive = below about 15%; note: compound concentration not given in the record; the text of the record calls up to 30% inactive
#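 Agonist mode: compounds alone added to overnight-plated D2 PathHunter cells for 90 min at 37 C, with 57 uM final dopamine (EC100) defining full response. Beta-arrestin recruitment detected by chemiluminescent reagent, read after 1 h at ambient temperature.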
# PINK1 expr mod: modulators of PINK1 expression; AID 624263; actives 0.2% (n = 410,000); Potency, µM (titrated, usually from 76.6 µM), for the others: at the highest dose activation (PINK1 increase), actives largely listed as activators; PINK1 immunofluorescence, high-content cytometry, 24 h; active = well fitted activation curve with a large enough effect; inconclusive = small, poorly fitted or top-dose-only effect; inactive = flat fitted curve, though single readings scatter; cell line not stated here;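 note: potency is the fitted concentration of half-maximal effect; % of control where 0% means no effect; nearly all actives have a fitted effect of over 65% in size; a mitochondrial uncoupler was the plate control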
#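 PINK1 protein level read as immunofluorescence by microplate cytometer in a fixed, stained stable cell line after 24 h exposure to five compound concentrations, with CCCP as control.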
# The depositor's hits bear a star; ? = inconclusive; nt = no result given; & = joins results of further samples; [ ] = remark or other dose.
SMILES,TRPV1 PAM,Six1-Eya2 blk,Sfp inh,D2 PAM,CtBP-E1A blk,D2 agonist,PINK1 expr mod
CC(C)(O)CNC(=O)Nc1ccc(Cl)c(Cl)c1,-11.4,-0.8,-0.6%,-23.4,nt,-4.1,3.1%
CCOC(=O)CSCC(NC(=O)OC(C)(C)C)C(=O)OCC (stereo not given),-7.6,-1.1,15.4%,-0.9,11.1,-2.7,0.0%
Cc1ccc(C(=O)NCCN2C3=NC[C@@H](Cc4ccccc4)N3C[C@H]2Cc2ccc(O)cc2)cc1Br,-8.2,-19.5,44.7µM*,-17.5,-15.5,1.7,-1.5%
CC(=O)Nc1ccc(SCC(=O)Nc2ccccc2N2CCOCC2)cc1,nt,1.8,nt,-22.7,7.6,2.5,2.3%
CN(CCO)CC(O)Cn1cnc2c1c(=O)n(C)c(=O)n2C (stereo not given) (tested in a mixture with another compound),-2.5,1.1,0.9%&14.6%,5.2,4.1,-2.2,0.4%
CCN(CC)C(=O)COc1coc(CN2CCN(c3ccc(F)cc3)CC2)cc1=O,?,-0.9,11.5%,-7.4,3.1,0.3,-0.6%
O=C(Nc1cccc(O)c1)c1cnn2cccnc12,4.3,-15.3,10.4%,-2.0,-15.0,-1.5,-2.2%[38.3 µM]
COc1cccc(CCN2CCC(CNS(=O)(=O)c3cc(-c4cc(C)no4)ccc3C)CC2)c1,18.3,-21.8,0.6%,-26.1,nt,4.4,-0.7%
O=[N+]([O-])c1ccc(N2CCN(Cc3ccc(Br)o3)CC2)cc1,?,-16.0,-16.2%,-1.1,-8.2,-2.7,6.3%
CCN(C(=O)Cc1c(C(=O)O)[nH]c2ccccc12)c1cc(OC)ccc1OC,-18.3,5.9,-2.1%,-0.4,5.2,2.1,0.1%
Cc1nn(CC(=O)OCC(=O)c2ccc(OC(F)F)cc2)c(C)c1[N+](=O)[O-],-2.0,13.7,nt,-5.3,25.6,-6.4,1.5%
O=C(/C=C/c1ccccc1O)c1ccc(Cl)cc1,-6.1,-5.6,-14.9%,10.6,nt,-1.9,11.3%
COc1ccc(C2=NN(C(=O)c3cccs3)C(c3ccccc3OC)C2)cc1OC (stereo not given),-6.0,-18.3,6.7%,11.6,-19.4,6.9,3.4%
O=C(NCCN1CCOCC1)c1cc(-c2cccc(O)c2)on1,8.2,-10.2,8.1%,-4.5,-6.6,-4.6,3.5%
CCOC(=O)C1=C(C)N(C[C@@H]2CC[C@@H](Cc3ccc(-c4ccccc4)cc3)O2)C(=O)NC1c1cccc([N+](=O)[O-])c1 (stereo not given in full),nt,-14.4,nt,nt,-19.5,-2.5,-0.3%
COC(=O)C1=CN(c2ccc(F)c(F)c2)C=C(C(=O)OC)C1c1ccc([N+](=O)[O-])cc1,-2.6,-20.2,-0.2%,-3.0,-14.9,2.6,1.1%
Cc1nc2ccccc2c(=O)n1CCCn1ccnc1,8.1,1.2,22.7%,-11.1,2.9,-1.4,-0.1%
O=C(NC1CC1)C1=C[C@@H](C2CCCCC2)C[C@@H](OCCCCO)O1,-8.8,-1.0,8.1%,-2.1,-24.2,0.4,-0.8%
COc1ccc(S(=O)(=O)N2CCCC(C(=O)NCc3ccc4c(c3)OCO4)C2)cc1 (stereo not given),1.3,0.5,22.6%,-3.0,-0.5,0.2,1.1%
COc1ccccc1-n1c(SCC(=O)NC2CCCC2)nc2cccnc21,-16.4,0.0,14.3%,-16.0,0.6,-1.7,0.0%
CNC(=O)COC(=O)c1cc2c(C)nn(-c3ccc(F)cc3)c2s1,-3.1,1.8,12.5%,-2.8,4.5,1.1,3.5%[38.3 µM]
CCCNC(=O)C(=O)NCc1ccccn1,-3.1,4.2,-1.6%,-2.7,4.7,1.7,-0.4%
COc1ccc(C(CC(=O)N2CCN(c3ccccc3)CC2)c2c(O)cc(OC)cc2OC)cc1 (stereo not given),9.6,-15.6,-5.0%&-9.7%,0.0,-6.3,0.4,3.9%
COc1ccc(/C=N/Nc2nnc(Cc3ccccc3)c(=O)[nH]2)cc1OC,26.4,-65.9*,-6.3%,0.2,?,2.8,2.3%
O=C(Nc1ccc(F)cc1F)c1ccc2ncsc2c1,-3.3,0.5,14.2%,-20.6,-5.3,-5.2,2.9%
O=C(CBr)N1CCc2ccccc2C(c2ccccc2)C1 (stereo not given),-10.5,5.6,31.6µM*,-9.0,5.3,-4.7,2.0%
CCCC(C(=O)NNC(=O)c1cc(C)oc1C)c1ccccc1 (stereo not given),nt,-7.1,nt,-6.0,-2.4,-2.1,0.2%
NS(=O)(=O)c1ccc(CCNC(=O)CSc2ccc([N+](=O)[O-])cc2)cc1,-17.5,3.2,-4.6%,5.9,4.9,7.5,3.8%
COc1ccc2cc3cc(C(=O)NCCCN4CCc5ccccc5C4)sc3nc2c1,-12.0,-8.0,-4.7%,-35.2,-3.0,-4.9,7.9%
CC1(C)CC(=O)c2cc(C(=O)NCc3ccco3)c(=O)n(-c3ccc(Cl)cc3)c2C1,1.8,-1.3,?,-0.1,10.6,-3.5,-0.7%
CC(C)Cn1c(-c2cccs2)nc2ccccc21,-10.6,-2.1,5.3%,-7.9,-4.3,-5.1,-2.1%
O=S(=O)(c1ccc(-c2ccccc2)cc1)N1CCCCC1,23.0,11.1,6.8%,-10.0,11.7,-4.8,0.9%
N=C1/C(=C\c2coc3ccc(O)cc3c2=O)C(=O)N=C2SC=CN12,-16.9,-80.4*,?,3.4,-89.8*,5.3,1.9%
O=C1CN(C(=O)COC(=O)c2oc3ccccc3c2COc2ccccc2)c2ccccc2N1,9.5,3.1,-2.3%,-20.6,-3.5,-4.0,?
COC(=O)c1cn(CC(=O)Nc2ccc(OC)cc2)c2ccccc12,10.7,-6.6,2.3%,-4.4,9.6,-1.4,7.1%
CC(C)(Cc1cc(CC(C)(C)C(=O)O)cc(C(C)(C)C)c1)C(=O)O,15.8,2.8,17.4%,-11.8,12.8,-1.6,-0.5%
C=CCNC(=O)c1c(Cl)cnn1-c1ccc(C)cc1,2.6,-13.2,-3.4%,2.9,21.4,2.5,0.0%
COc1ccc(COC(=O)c2n[nH]c3ccccc23)cc1F,-2.2,-1.3,-3.9%,2.2,-7.5,-0.7,0.6%
CC(C)(NC(=O)N1CCOCC1)c1cccc(C(C)(C)NC(=O)N2CCOCC2)c1,nt,8.2,nt,-3.9,-0.1,-1.4,-1.1%
CCOC(=O)C1CCN(C(=O)CN(C)S(=O)(=O)c2ccc3c(c2)c(=O)n(C)c(=O)n3C)CC1,-10.4,-12.1,10.0%,-2.1,-2.9,4.8,-0.8%
COc1ccc2c(c1)N(C)/C(=C1/SC(=NCc3ccccc3)N(c3ccccc3)C1=O)S2,0.0,11.8,14.2%,-19.0,10.5,-1.4,3.3%
CCc1ccccc1N(C(C)=O)c1nc(CN=C=S)cs1,4.8,-23.6,11.4%,-21.5,-3.3,1.9,1.6%
O=C(CSc1nc2ccccc2s1)NC1CCS(=O)(=O)C1 (stereo not given),-20.4,-1.0,-23.9%,-3.6,14.0,-0.8,0.6%[38.3 µM]
CCc1ccc(CNC(=O)C2Cc3cc(S(=O)(=O)N4CCCC4)ccc3N2C(C)=O)cc1 (stereo not given),-6.9,0.5,5.1%,-5.4,-4.9,1.2,-0.3%
O=C1CCCN1CCCNC(=S)Nc1ccc(Cl)cc1Cl,3.2,1.3,11.1%,-5.2,-3.1,-0.7,-0.2%
O=P(CCO)(c1ccccc1)c1ccccc1,-9.4,3.0,-4.4%,-6.6,-1.7,-0.5,-1.0%
O=[N+]([O-])c1ccc2c(c1)Nc1nc3ccccc3nc1N2,?,0.0,16.2%,14.1,nt,1.3,-1.2%
CN1CCN(Cc2nc3cc(NC(=O)COc4ccc([N+](=O)[O-])cc4)ccc3n2C)CC1,-0.2,2.3,12.9%,5.5,4.2,3.9,-0.8%

# 6 compounds drawn at random from the list so far, as already listed:
SMILES,TRPV1 PAM,Six1-Eya2 blk,Sfp inh,D2 PAM,CtBP-E1A blk,D2 agonist,PINK1 expr mod
CCc1ccccc1N(C(C)=O)c1nc(CN=C=S)cs1,4.8,-23.6,11.4%,-21.5,-3.3,1.9,1.6%
COc1ccc(COC(=O)c2n[nH]c3ccccc23)cc1F,-2.2,-1.3,-3.9%,2.2,-7.5,-0.7,0.6%
CCc1ccc(CNC(=O)C2Cc3cc(S(=O)(=O)N4CCCC4)ccc3N2C(C)=O)cc1 (stereo not given),-6.9,0.5,5.1%,-5.4,-4.9,1.2,-0.3%
CCOC(=O)C1CCN(C(=O)CN(C)S(=O)(=O)c2ccc3c(c2)c(=O)n(C)c(=O)n3C)CC1,-10.4,-12.1,10.0%,-2.1,-2.9,4.8,-0.8%
C=CCNC(=O)c1c(Cl)cnn1-c1ccc(C)cc1,2.6,-13.2,-3.4%,2.9,21.4,2.5,0.0%
CN1CCN(Cc2nc3cc(NC(=O)COc4ccc([N+](=O)[O-])cc4)ccc3n2C)CC1,-0.2,2.3,12.9%,5.5,4.2,3.9,-0.8%

# Next section:
SMILES,TRPV1 PAM,Six1-Eya2 blk,Sfp inh,D2 PAM,CtBP-E1A blk,D2 agonist,PINK1 expr mod
CCS(=O)(=O)N1CCC(C(=O)N2CCOCC2)CC1,8.2,4.0,7.0%,10.5,2.4,-2.3,nt
Nc1ncnc2c1ncn2[C@@H]1O[C@H](CNCc2ccc(OCC(=O)Nc3nccs3)cc2)[C@@H](O)[C@H]1O,nt,-2.0,nt,-2.3,1.1,-2.5,0.7%
COc1ccc2c3n(nc2c1)CCN=C3c1ccc(C)cc1,-16.7,-11.2,nt,-7.4,-8.1,-6.3,2.2%
COc1cc(NC(=O)c2noc(C)c2[N+](=O)[O-])c(OC)cc1Cl,-12.5,0.1,12.2%,3.0,nt,44.6*,1.2%
COc1ccc(-c2nnc(SCC(=O)N3CCCC3)o2)cc1OC,nt,10.7,nt,-4.2,4.0,-1.6,0.7%
Cc1ccc(NC(=O)CCNS(=O)(=O)c2ccccc2F)cc1S(=O)(=O)N1CCOCC1,3.3,-7.8,nt,-13.6,-0.6,-5.0,-1.3%
Cc1cc(=O)[nH]c(SCn2nnc3ccccc3c2=O)n1,16.0,0.2,-9.1%,5.7,3.8,2.7,?
CC(C)C(=O)Nc1ccnc(-c2cccnc2)n1,9.0,-3.4,-9.0%,6.7,12.4,-2.7,-6.1%[38.3 µM]
COc1cc2nc(CN(C)Cc3nc4ccccc4c(=O)[nH]3)[nH]c(=O)c2cc1OC,0.1,-66.2*,15.0%,0.3,-66.3*,-0.4,3.0%[38.3 µM]
Cc1cc2ccccc2c(=O)n1CC(=O)NCC(=O)N1CCCC1,-7.5,-1.0,15.5%,-8.8,12.0,-1.0,0.4%
